PINK1 modulator: changes PINK1 expression; PINK1 immunofluorescence, high-content cytometry, 24 h; Potency, µM (titrated, usually from 76.6 µM), without a hit: at the highest dose activation (PINK1 increase), hits mostly activators; hit rate 0.2% among 410,000; AID 624263; active = well fitted activation curve with a large enough effect; inconclusive = small, poorly fitted or top-dose-only effect; inactive = flat fitted curve, though single readings scatter; cell line not stated here;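 further: % of control where 0% means no effect; nearly all actives have a fitted effect of over 65% in size; a mitochondrial uncoupler was the plate control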
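Fluorescence from anti-PINK1 antibody, together with nuclear and cell stains, was scanned on a laser-scanning cytometer. Before staining, stable-line cells were incubated 24 hours with compounds at 5 concentrations; primary antibody 12 h at 10 degrees C.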
* hit, by the source's call; ? = inconclusive. Potency means the concentration at half of the fitted maximal effect.

SMILES	PINK1 modulator
CCOc1ccc(NC(=O)Cn2cnc3sc(C)c(S(=O)(=O)N4CCN(c5ccccc5OC)CC4)c3c2=O)cc1	0.1%
CCCOc1ccc(CNC(=O)c2cc3oc4ccccc4c3n2C)cc1	4.6%
COc1cc2c(cc1NC(=O)COc1ccc(Br)cc1)oc1ccccc12	4.0%
Cc1cccc(N2CCN(C(=O)CCn3c(=O)c4cccn4c4cccnc43)CC2)c1C	-0.2%
CC(NC(=O)C1CC1)c1nnc2n1CCN(Cc1cccc(F)c1F)CC2 (stereo unspecified)	0.9%
O=c1c2sc3ccccc3c2n(Cc2ccc(Cl)cc2)c(=O)n1Cc1ccco1	0.2%
Cn1nnnc1Sc1ncnc2scc(Br)c12	6.4%
CCOC(=O)c1cc(S(=O)(=O)Nc2ccc(OC)c(Cl)c2)[nH]n1	1.1%
CC(=O)c1ccc(C(=O)N2CCCC(c3nc(SCc4ccccn4)ncc3C)C2)cc1 (stereo unspecified)	-0.1%
COc1cccc(C(=O)NCCc2csc(-c3cccc(F)c3)n2)c1OC	0.2%
COc1ccc(CNC(=O)c2cc3c(=O)n(Cc4cccnc4)ccc3nc2C)cc1	-0.5%
Cc1ccc(NC(=O)C(=O)NCC(c2cccnc2)N2CCN(Cc3ccccc3)CC2)cc1F (stereo unspecified)	-0.4%
COc1cc(OC)c(OC)cc1CN1CCc2nc(N3CCN(c4ncccn4)CC3)ncc2C1	0.1%
COc1ccc(OC)c(S(=O)(=O)N2Cc3ccccc3CC2C(=O)Nc2ccc(C(C)=O)cc2)c1 (stereo unspecified)	-1.1%
Cc1[nH]c2ccccc2c1/C=C/c1c(C)[nH]c2ccccc12	3.5%
CCOc1ccc(NC(=O)c2sc3nc4c(c(-c5ccccc5)c3c2N)C(=O)CC(C)(C)C4)cc1	1.0%
COc1cc(OC)c(-c2nn3c(-c4cc(C)[nH]n4)nnc3s2)cc1OC	3.1%
CCOc1ccc(NC(=O)CN(c2ccc(CC)cc2)S(=O)(=O)c2c(C)noc2C)cc1	3.9%
Cc1ccc(Cl)cc1N1CCN(C(=O)Cn2c(-c3cccs3)cc3cc(F)ccc32)CC1	0.2%
O=C1CCCCN1CCC(=O)N1CCOc2ccc(C(O)C3CCCCC3)cc2C1 (stereo unspecified)	0.8%
COc1ccccc1N1CCN(c2ccc(=O)n(CC(=O)Nc3ccc(F)c(F)c3)n2)CC1	5.0%
COc1ccc(-c2noc(CCC(=O)Nc3ccc(C(F)(F)F)cc3)n2)cc1	0.3%
COc1ccc(CCNC(=O)Cn2ccc3cc(S(=O)(=O)N4CCCCC4)ccc32)cc1OC	2.0%
COc1ccc(-c2oc3ncn4nc(COc5ccc(Cl)cc5)nc4c3c2-c2ccc(OC)cc2)cc1	1.8%
Cc1ccc2c(c1)c1c(c(=O)n(Cc3ccccc3)c(=O)n1CC(=O)Nc1ccccc1C)n2C	-0.2%
CC1=C(C(N)=O)C(c2cccc(Br)c2)n2nc(SCc3ccccc3Cl)nc2N1 (stereo unspecified)	-0.9%
COc1cccc(NC(=O)/C(C#N)=C\c2cn(Cc3ccc(Cl)cc3)c3ccccc23)c1	3.8%
COCCNC(=O)c1ccc2c(c1)N(Cc1cc(C)ccc1C)C(=O)c1ccccc1S2(=O)=O	0.2%
Cc1cc(C(=O)NCc2nc(-c3cccc(NC(=O)c4ccccc4)c3)oc2C)nc(C)n1	-0.4%
CC(C)(C)OC(=O)N1CCC(c2c(C(=O)Nc3ccc4c(c3)OCCO4)cnn2-c2ccc(F)cc2)CC1	0.7%
Cc1cc(O)c(C(c2ccccc2)N2CCCCC2)c(=O)n1Cc1ccco1 (stereo unspecified)	0.7%
Cc1ccc(CN(Cc2cc3cc(C)ccc3[nH]c2=O)Cc2nnnn2Cc2ccccc2)cc1	-0.8%
CCOC(=O)c1noc2nc(C)n(Cc3cccc(C#N)c3)c(=O)c12	1.9%
O=C(NCCc1ccccc1)c1ccc(Nc2nc3ccccc3n3nnnc23)cc1	-0.2%
COc1ccc(CCN2C(=O)c3[nH]nc(-c4ccccc4O)c3C2c2ccc(O)c(OC)c2)cc1 (stereo unspecified)	1.8%
CCOC(=O)c1c(C)c(C(=O)NCc2ccc(Cl)cc2)c(C)n1C	4.6%
CCCc1cc(=O)[nH]c(SCC(=O)N2CCN(c3ccccc3OC)CC2)n1	0.4%
CCOC(=O)Cc1ccc(NC(=O)Nc2cccc(OCc3cc(=O)n4cc(C)ccc4n3)c2)cc1	-0.2%
COc1ccc(NC(=O)c2nc(-c3ccc(C)cc3)n3c2CCCCC3)c(OC)c1	-0.6%
O=C(NCc1ccco1)c1ccc2c(c1)N(Cc1cccc(Cl)c1)C(=O)c1ccccc1S2(=O)=O	0.0%
CC(C)c1ccc(NC(=O)c2cc(S(=O)(=O)N3CCc4ccccc4C3)ccc2F)cc1	0.2%
CCn1cc(C(=O)NCc2ccc(C)cc2)c(=O)c2cc(S(=O)(=O)N3CCCCCC3)ccc21	4.2%
Cc1ccc(-n2ncc(C(=O)NCCN3CCCC3)c2C2CCN(C(=O)OC(C)(C)C)CC2)cc1	-0.6%
CCOCCCNC(=O)C1CCN(c2cc(C)nc3c(-c4ccc(Cl)cc4)c(C)nn23)CC1	1.8%
COc1ccccc1CNC(=O)C(NS(=O)(=O)c1cccs1)C(C)C (stereo unspecified)	1.6%

Six records picked at random from the list so far, as already listed:
SMILES	PINK1 modulator
COc1ccccc1CNC(=O)C(NS(=O)(=O)c1cccs1)C(C)C (stereo unspecified)	1.6%
O=C(NCc1ccco1)c1ccc2c(c1)N(Cc1cccc(Cl)c1)C(=O)c1ccccc1S2(=O)=O	0.0%
CCCc1cc(=O)[nH]c(SCC(=O)N2CCN(c3ccccc3OC)CC2)n1	0.4%
CCOCCCNC(=O)C1CCN(c2cc(C)nc3c(-c4ccc(Cl)cc4)c(C)nn23)CC1	1.8%
CCOC(=O)c1noc2nc(C)n(Cc3cccc(C#N)c3)c(=O)c12	1.9%
CC(C)c1ccc(NC(=O)c2cc(S(=O)(=O)N3CCc4ccccc4C3)ccc2F)cc1	0.2%

Next compounds:
SMILES	PINK1 modulator
CCCN1CCN(CCCNC(=O)c2ccc3c(c2)sc2nc(-c4ccc(C)cc4)cn23)CC1	1.4%
COc1ccc2c(C)c(CC(=O)NCCc3ccccc3)c(=O)oc2c1OC	0.0%
CCc1cccc(C)c1NC(=O)Nc1csc2c1CCCC2	-1.2%
COc1ccc(-n2nc(C(=O)Nc3cc(C)ccn3)c3c4ccccc4n(C)c3c2=O)cc1Cl	2.2%
CN(C)c1nc2cc3c(cc2cc1CN(CC1CCCO1)C(=O)/C=C/c1cccs1)OCO3 (stereo unspecified)	-0.1%
Cc1ccc(-c2nnc(Nc3ccc(Cl)c(Cl)c3)c3ccccc23)cc1S(=O)(=O)N(C)C	3.6%
COc1ccc(Cn2c(=O)c3oc4ccccc4c3n(Cc3ccc(F)cc3)c2=O)cc1	0.1%
COc1ccc(C2=Nc3ccccc3NC(c3cccs3)=N2)cc1	-1.3%
O=C(CSc1ccc2nc(-c3ccccc3)cn2n1)Nc1ccccc1C(F)(F)F	-0.8%
Cc1cc(C)cc(NC(=O)Cc2c(C(=O)O)c(C)cn2C)c1	-0.5%
Cc1nc(-c2ccc(S(=O)(=O)N(C)Cc3ccccc3)cc2)co1	-4.2%
CC(C)c1ccc(CNC(=O)c2ccc(N3CCCC3)c(NC(=O)NCc3ccccc3)c2)cc1	-1.2%
Cc1ccc(CCNc2ncnc3onc(-c4ccc(F)cc4)c23)cc1	2.1%
CCCC(=O)n1nc(-c2ccco2)nc1NCc1ccccc1Cl	1.2%
COCC(=O)Nc1cc(C(=O)N2CCN(c3ccccc3)C(=O)C2)cc2nc(-c3ccccc3)n(C)c12	0.5%

Five consecutive entries already listed, quoted:
SMILES	PINK1 modulator
CCCN1CCN(CCCNC(=O)c2ccc3c(c2)sc2nc(-c4ccc(C)cc4)cn23)CC1	1.4%
COc1ccc2c(C)c(CC(=O)NCCc3ccccc3)c(=O)oc2c1OC	0.0%
CCc1cccc(C)c1NC(=O)Nc1csc2c1CCCC2	-1.2%
COc1ccc(-n2nc(C(=O)Nc3cc(C)ccn3)c3c4ccccc4n(C)c3c2=O)cc1Cl	2.2%
CN(C)c1nc2cc3c(cc2cc1CN(CC1CCCO1)C(=O)/C=C/c1cccs1)OCO3 (stereo unspecified)	-0.1%

The list continues.
SMILES	PINK1 modulator
Cc1cc(Nc2cc(Cl)nc(Sc3ccc(NC(=O)C4CC4)cc3)n2)n[nH]1	-0.5%
Cc1cccc(CC(=O)NC2CC(=O)N(c3ccccc3)C2)c1 (stereo unspecified)	2.3%
COc1cccc(CNC(=O)CCc2c(C)nc3c(c2C)c(=O)n(C)c(=O)n3C)c1	3.2%
COc1cccc(CNC(=O)COCc2cc(-c3ccc4c(c3)OCO4)on2)c1	-0.2%
CC1=Nc2cc(C(=O)NCc3ccc(C)cc3)ccc2Sc2ccc(Cl)cc21	0.1%
COc1ccc(OCC(=O)NCC2(N3CCN(C)CC3)CCCCC2)cc1	-0.6%
Cc1ccc(-c2nc3ncccc3o2)cc1NC(=O)c1cccc(OCC(C)C)c1	2.2%
COc1ccccc1N1CCN(C(=O)Cn2ncc3ccsc3c2=O)CC1	-0.2%
Cc1nn(S(=O)(=O)c2ccc(C(C)(C)C)cc2)c(C)c1S(=O)(=O)N1CCC(C)CC1	0.5%
CC(=O)c1ccc(NC(=O)Cn2cc(S(=O)(=O)Cc3ccccc3Cl)c3ccccc32)cc1	10.4%
CN(C(=O)c1cc2c(=O)n3ccccc3nc2n1C)c1ccccc1	1.0%
COc1cccc(-n2c(=O)c3c(C)c(C(=O)N(C)C)sc3n(Cc3cccc(C)c3)c2=O)c1	0.2%
COc1ccc(OC)c(CNCc2c(C(=O)O)n(Cc3cccc(F)c3)c3cc(OC)ccc23)c1	1.3%
CC(=O)c1cccc(NS(=O)(=O)c2cc3c(cc2C)n(C)c(=O)c(=O)n3C)c1	1.5%
Cc1nc2ncnn2c(C)c1CCC(=O)N1CCN(c2ccccc2)CC1	1.3%
COc1ccc(N2CC(NC(=O)c3ccc4c(c3)OCO4)CC2=O)cc1OC (stereo unspecified)	0.0%
COCc1nnc(NC(=O)C2CCN(C(=O)c3ccccc3)CC2)s1	-0.5%
CCC1=C(c2ccc(C)cc2)S(=O)(=O)N=C1N1CCC(C(=O)NCCc2cccc(OC)c2)CC1	-0.8%
Cc1nc2cccnc2n1-c1cccc(C(=O)NCCN(C)C)c1	-0.4%
CCOC(=O)c1sc2ncn(CC(=O)Nc3ccc(OC)c(Cl)c3)c(=O)c2c1C	2.1%
C=C1C=C(C(F)F)n2ncc(C(=O)NCc3ccc(Cl)cc3)c2N1	-0.7%
O=C(Nc1ccc(F)c(Cl)c1)C1CCCN1S(=O)(=O)c1ccc(F)cc1 (stereo unspecified)	-1.5%
COc1ccc(C)cc1NC(=O)c1ccc2c(c1)N(Cc1cccc(Cl)c1)C(=O)c1ccccc1S2=O (stereo unspecified)	1.5%
Cc1cc(C)c(OCC(=O)N(Cc2ccc(N(C)C)cc2)CC2CCCO2)c(C)c1 (stereo unspecified)	4.7%
O=C(CSc1oc(-c2ccco2)nc1S(=O)(=O)c1ccc(Br)cc1)c1ccccc1	-1.4%
CCc1cccc(C)c1NC(=O)CSc1nnc(N)s1	1.2%
CCn1c(SCC(=O)N2CCC(C)CC2)nnc1-c1ccccc1O	-1.7%
Cc1scc(CN2CCN(c3ccccc3F)CC2)c1C	14.0%
Cc1ccc(CNC(=O)CSc2c3c(nc4ccc(Cl)cc24)CCCC3)cc1	1.2%
Cc1ccc(CNC(=O)CN2N=C(c3ccc(C)cc3)CCC2=O)cc1	0.4%
O=C(c1cc(-c2ccccc2O)on1)N1CCCCC1	0.6%
CN(C)CC(C)(C)CNC(=O)c1cnn(-c2nccc(-c3ccc4c(c3)OCO4)n2)c1-c1ccco1	-0.5%
Cc1ccc(CNc2ncnc3c2cnn3-c2ccc(C)cc2C)cc1	2.2%
O=C(Nc1ccc(C(=O)N2CCN(c3ccccc3F)CC2)cc1)c1nsc2ccccc12	-0.3%
Cc1ccc(/C=C/c2nc3ccccc3[nH]2)cc1	2.9%
CCN1CCCC1CNC(=O)c1cnn(-c2nccc(-c3ccc(C)o3)n2)c1C1CC1 (stereo unspecified)	-1.0%
O=C(Cn1c(=O)n(Cc2ccc3c(c2)OCO3)c(=O)c2ccc(C(=O)NC3CCCCC3)cc21)Nc1ccccc1F	-0.7%
O=C(NCc1cccc(F)c1)c1ccccc1NC(=O)c1nsc2ccccc12	?
COc1ccc(CNc2nc(-c3ccccc3)nn2S(=O)(=O)c2ccccc2)cc1	?
COc1cccc(-n2c(=O)c3sc4ccccc4c3n(CC(=O)Nc3cccc(Cl)c3)c2=O)c1	0.7%
Fc1ccc(-c2cc(-c3ccccc3)c3c(n2)-c2cc(F)ccc2OC3)cc1	0.2%
CC(Oc1ccccc1)C(=O)OCc1cc(=O)n2nc(C(C)C)sc2n1 (stereo unspecified)	0.2%
CC1=C(C(N)=O)C(c2ccc(C(C)C)cc2)n2nc(SCc3ccccc3F)nc2N1 (stereo unspecified)	12.2%
CCCCOc1ccc(Cn2c(=O)sc3ccccc32)cc1OC	-0.2%
CCC(=O)N1CCc2cc(S(=O)(=O)NC(Cc3ccccc3)C(=O)Nc3ccccc3C)ccc21 (stereo unspecified)	1.2%
CCCOc1ccc(-c2nc3ccc(Br)cc3c(=O)o2)cc1	0.5%
COc1ccc(CNC(=O)c2oc3c(c2C)-c2nn(Cc4ccccc4Cl)cc2CC3)cc1	0.0%
COc1ccc(Cl)cc1N(C)C(=O)c1cc2c(=O)oc3ccc(C)cc3c2s1	0.5%
COc1ccc(-n2nc(C(=O)N3CCCC(C)C3)c3c4ccccc4n(C)c3c2=O)cc1 (stereo unspecified)	0.0%
Cc1cccc(Cn2c(=O)n(CCCCC(=O)NCc3ccc4c(c3)OCO4)c(=O)c3ccccc32)c1	1.2%
CCOc1ccc(OCC)c(NC(=O)CN(C)S(=O)(=O)c2ccc3c(c2)CCCC(=O)N3)c1	0.9%
COc1ccccc1N1CCN(C(=O)c2ccc(Nc3nc4ccccc4n4nnnc34)cc2)CC1	1.2%

A portion of the library; rates above refer to the full screens.
